# B2AR ag = beta2AR agonists driving receptor internalization, primary screen, cell-based, FAP fluorogen, flow cytometry | AID 504454, 2011 | response, % (test concentration not listed) | Am2.2-beta2AR cells; reference of the scale not given here | 340,000 tested, 0.43% active | Beta-2 adrenergic receptor (Homo sapiens), P07550;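 active = response above a set limit, near 3 SD of response in nonfluorescent compounds, cut at about 42% in these data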;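 note: stock transfer was 100 nL into about 11 µL; a reference agonist was the positive control; negative values mostly stem from fluorescent compounds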
# Bfl-1 A1 inh = caspase 3/7 activation in MEF A1-2A-BIM cells, primary screen, A1 inhibitor project, cell-based, luminescence, HTS. caspase activation, % (test concentration not listed). 330,000 tested, 0.066% active. AID 2462, 2010. Caspase-Glo 3/7 luminescence, 3 h; percent of clofoctol response, vehicle zero;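 active = over half of replicate activation scores above 10%, or exactly half above 10 with the replicate mean above 10; inconclusive = replicate mean below 10 yet half the replicates above 10; inactive = over half of replicates below 10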;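 note: wells of about 30 µL received 50 nL stock; many hits fall short of the cut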
# UCH37 inh = inhibitors of human UCH37 deubiquitinase, primary screen, biochemical, Ub-AMC cleavage, fluorescence; purified proteasome/UCH37; inhibition, % (test concentration not listed); 330,000 tested, 0.33% active;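 active = mean of two replicates above 20%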;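 note: 0% = compound-free wells with enzyme and 100% = wells lacking proteasome; stock transfer was 100 nL into about 20 µL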
#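 Schedule: 30 min plus 25 min, room temperature / Material: human UCH37 within purified proteasomes / Technique: AMC fluorescence intensity at 355/460 nm / Buffer or medium: pH 7.4 Tris-HCl (50 mM) with ovalbumin, ATP-MgCl2, DTT / Controls: wells without proteasome as full block, compound-free enzyme plus substrate as uninhibited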
# LANA-H2B inh = blockers of LANA interaction with H2A/H2B – biochemical, FP readout, HTS, primary screen. AID 2629, 2010. cell-free LANA-H2A/H2B peptide, fluorescence polarization. 320,000 tested, 0.6% active. inhibition, % (no concentration beside the values). Protein LANA1 (Human herpesvirus 8 type P (isolate GK18)), Q9QR71; in the data active = inhibition mostly above about 10%, no sharp cut-off; inactive = mostly below about 6.7%;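 note: stock transfer was 7.5 nL into about 10 µL; 0% = median of vehicle wells and 100% = median of positive control wells; one replicate is shown; the record names a cut of 25% in any replicate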
# Target sequence (Q9QR71 whole entry, looked up): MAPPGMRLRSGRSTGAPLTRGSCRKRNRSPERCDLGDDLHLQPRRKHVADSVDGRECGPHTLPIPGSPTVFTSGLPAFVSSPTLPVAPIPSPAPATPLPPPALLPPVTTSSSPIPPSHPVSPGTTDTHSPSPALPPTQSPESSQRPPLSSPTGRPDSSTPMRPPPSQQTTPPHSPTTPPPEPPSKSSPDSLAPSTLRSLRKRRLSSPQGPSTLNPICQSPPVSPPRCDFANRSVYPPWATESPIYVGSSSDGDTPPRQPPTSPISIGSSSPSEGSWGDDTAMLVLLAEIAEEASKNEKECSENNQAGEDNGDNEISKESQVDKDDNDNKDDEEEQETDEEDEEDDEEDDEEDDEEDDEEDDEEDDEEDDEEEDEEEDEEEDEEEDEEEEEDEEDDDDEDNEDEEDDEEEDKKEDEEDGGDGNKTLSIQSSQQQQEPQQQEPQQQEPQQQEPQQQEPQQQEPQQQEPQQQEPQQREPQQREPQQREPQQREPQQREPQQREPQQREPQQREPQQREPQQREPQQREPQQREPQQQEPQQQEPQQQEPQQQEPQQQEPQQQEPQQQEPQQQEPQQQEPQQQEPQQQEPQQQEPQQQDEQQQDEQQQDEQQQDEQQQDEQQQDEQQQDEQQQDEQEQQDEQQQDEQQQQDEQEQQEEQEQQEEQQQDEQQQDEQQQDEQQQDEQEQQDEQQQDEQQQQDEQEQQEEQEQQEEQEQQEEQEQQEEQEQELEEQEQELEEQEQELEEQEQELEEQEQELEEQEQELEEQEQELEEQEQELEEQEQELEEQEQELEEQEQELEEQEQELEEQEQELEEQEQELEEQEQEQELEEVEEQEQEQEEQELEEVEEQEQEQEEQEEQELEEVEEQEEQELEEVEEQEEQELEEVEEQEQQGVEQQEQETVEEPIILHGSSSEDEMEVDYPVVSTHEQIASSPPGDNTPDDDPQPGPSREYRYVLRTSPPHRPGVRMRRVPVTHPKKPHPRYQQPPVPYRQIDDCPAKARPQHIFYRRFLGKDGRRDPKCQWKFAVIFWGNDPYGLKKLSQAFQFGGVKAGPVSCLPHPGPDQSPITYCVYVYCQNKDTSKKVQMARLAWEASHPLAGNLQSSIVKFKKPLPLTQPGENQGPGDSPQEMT
# Beta cell apopt = inhibitors of cytokine-induced beta cell apoptosis, primary screen, luminescence | INS-1E cytokine-induced death, ATP luminescence, 48 h; percent of positive-control rescue, neutral wells zero | protection from apoptosis, % (test concentration not listed) | 300,000 tested, 0.8% active;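 active = all replicates at 75% or more, or half of them and the mean; inconclusive = half reach 75% but not the mean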;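 note: 0% = cytokine-treated negative control wells and 100% = positive control rescue; higher means more ATP so stronger rescue from cytokine killing; wells of about 40 µL received 100 nL stock; the first replicate is given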
# Calb FLC = C. albicans growth inhibition with fluconazole, primary screen, CaCi-2 strain, Alamar Blue fluorescence; growth inhibition, % (test concentration not listed); 300,000 tested, 0.57% active; C. albicans CaCi-2 (fluconazole-resistant clinical isolate) + fluconazole, 48 h;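 active = most replicates above 75%; inconclusive = exactly half above 75%; inactive = most below 75%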;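 note: all wells also contain fluconazole at 8 µg/ml as a sub-toxic cotreatment; 0% = median of DMSO wells and 100% = median of geldanamycin control wells; wells of about 8 µL received 7.5 nL stock; the first replicate is given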
# T cruzi inh = inhibitors of intracellular T. cruzi growth, primary screen, luminescence, NIH3T3 host cells. 300,000 tested, 1.4% active. T. cruzi beta-gal in NIH3T3, 90 h. inhibition, % (no concentration beside the values);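 active = mean inhibition across valid replicates above about 55%, limit read from the data; inconclusive = mean below that limit but half or more replicates reach it; inactive = mean below it, under half of replicates reach it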;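 note: signal also drops with host cell toxicity which is not excluded here; 0% = plate median of DMSO wells and 100% = zero luminescence signal; higher percent means less beta-gal luminescence so fewer parasites; stock transfer was 50 nL into about 50 µL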
# RanGTP-Imp inh = inhibitors of RanGTP-importin-beta interaction, primary screen, biochemical, FRET, CFP-Ran, YFP-importin-beta, homogeneous; inhibition, % (concentration not given with the values); cell-free CFP-Ran/YFP-importin-beta FRET ratio; Ran GTPase (GTP-bound) - importin-beta complex; 300,000 tested, 1.1% active; AID 2216, 2009;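 active = most replicates above 15%; inconclusive = exactly half above 15%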;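 note: 0% = DMSO wells and 100% = Ran loaded with GDP instead of GTP; wells of about 40 µL received 100 nL stock; the first replicate is given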
# Active calls of the source: *; ? = inconclusive; . = no result given.
SMILES,B2AR ag,Bfl-1 A1 inh,UCH37 inh,LANA-H2B inh,Beta cell apopt,Calb FLC,T cruzi inh,RanGTP-Imp inh
COc1ccc(CCNC(=O)CSc2nnc(-c3ccc(F)cc3)c3ccccc23)cc1OC,1,0.8,1.8,1.9,.,-2,11,-3.3
COc1cccc(CNC(=O)COC(=O)c2c(C)nn(-c3ccccc3)c2Cl)c1,6,-0.7,4.6,3.8,-3,.,.,.
Cc1ccc(N/C(=N/S(=O)(=O)c2cccs2)c2ccccc2)c(C)c1,-7,1.1,2.6,-3.4,-7,?,1,0.1
CC1CCN(C(c2ccccc2)c2nnnn2C(C)(C)C)CC1 (stereo not given),1,1.6,1.3,9.9,-4,-17,9,-0.5
Cc1ccc(C2CC(c3cccc(Cl)c3)n3nc(N)nc3N2)cc1 (stereo not given),-8,-2.1,-0.8,5.1,-1,6,17,-2.5
O=C(CC1C(=O)NCCN1Cc1ccc(Cl)c(F)c1)NC1CCC1 (stereo not given),-4,-1.7,-7.2,2.3,-10,7,-5,2.2
Cc1cccc2c(C(=O)N3CCN(c4ccccn4)CC3)cc(-c3cccc(Br)c3)nc12,12,0.1,4.4,2.6,112*,1,30,3.7
O=C(O)c1cccc(Cl)n1,-3,-0.5,2.9,-4.5,-7,-7,-4,-4.1
CCC(CO)Oc1cc(NCc2ccccn2)c2ncn(C(C)C)c2c1 (stereo not given),-9,0.9,6.1,-5.5,-2,.,.,.
COc1cc(OC)cc(-c2nc3nc(C)c(CCC(=O)NCc4ccco4)c(C)n3n2)c1,1,0.1,5.0,0.0,-3,12,9,-1.7
CCOC(=O)N1C2=NC(C(=O)OC)=C(C(=O)OC)[C@@H]3N(C)c4ccc(OC)cc4[C@]23C[C@H]1C(=O)OC,3,1.1,4.7,1.4,0,10,-12,-0.5
COc1ccccc1NC(CC(=O)c1ccccc1)C(=O)OCC(=O)c1ccc(C)cc1 (stereo not given),9,0.3,5.2,1.4,-2,-2,-19,0.2
COc1cccc2cc(C(C)N(CCCN3CCOCC3)C(=S)Nc3cc(C)cc(C)c3)oc12 (stereo not given),7,-0.1,0.9,4.8,-1,-5,18,5.3
CC1C(=O)C(C)C(c2ccc3c(c2)OCO3)NC1c1ccc2c(c1)OCO2 (stereo not given),4,1.0,4.3,-3.5,3,-18,-8,7.7
Cc1[nH]c2ccc(-c3n[nH]c(=S)n3-c3ccc(Br)cc3)cc2c1C,-4,0.4,4.2,-4.9,4,2,24,0.2
CCOC(=O)C1CCCN(c2nc3ccccc3nc2C(C#N)C(=O)OCC)C1 (stereo not given),-4,0.0,2.8,7.3,0,12,19,8.9
CC(C)(C)OC(=O)N[C@@H](Cc1ccccc1)C(=O)NCC1CCC(C(=O)N[C@@H](CC(=O)O)C(=O)O)CC1 (stereo not given in full),-2,-1.0,3.1,3.0,-8,-1,-10,2.5
O=C(NCC(=O)N1CCN(Cc2ccccc2)CC1)c1cc(Cl)cc([N+](=O)[O-])c1,-6,-0.6,4.1,-7.0,30,.,.,.
COCc1ccc(-c2c(-c3ccccc3OC)sc3cc4c(cc23)OCO4)cc1,1,-0.6,-0.3,4.8,-5,.,.,.
O=C(Cc1ccccc1)NNC1CC(=O)N(c2ccc(Oc3ccccc3)cc2)C1=O (stereo not given),-14,?,6.4,-4.7,-7,6,-11,3.1
CN(Cc1nc(Cc2ccccc2F)no1)[C@@H]1CS(=O)(=O)C[C@H]1O,8,0.5,1.6,-0.8,-3,-3,-13,-1.1
CCOC(=O)Cn1ccc(NC(=O)c2ccc3c(c2)OCO3)n1,10,-1.4,5.9,0.1,.,-6,-22,4.5
O=C(Cn1cnc2c(nnn2Cc2ccccc2)c1=O)N1CCN(c2ccccc2)CC1,3,-0.4,3.9,-2.2,3,-6,0,-0.3
Cc1ccc(S(=O)(=O)N2CCN(C(=O)COC(=O)c3c(C)noc3C)CC2)c(C)c1,-4,0.1,2.3,1.6,-8,-3,14,0.1
CC(C(=O)N(C)C1CCS(=O)(=O)C1)N1C(=O)/C(=C/c2cccs2)SC1=S (stereo not given),-9,0.4,2.4,-11,1,?,-39,-1.5
CCOc1ccc(NC(=S)NC(=O)c2c(Br)cnn2C)c([N+](=O)[O-])c1,-9,0.5,-13,-3.4,15,-4,9,3.4
O=C(CCN1C(=O)C2CC=CCC2C1=O)Nc1cccc(S(=O)(=O)N2CCCCC2)c1 (stereo not given),-3,-0.7,.,-0.1,4,.,.,.
COc1ccc(OCC(=O)Nc2cccc(-c3nc4ccccc4[nH]3)c2)cc1,-2,-4.6,1.1,4.8,7,23,-9,31*
CC(C)c1ccc(N(CC(=O)NCc2cccnc2)S(=O)(=O)c2ccccc2)cc1,-2,-0.3,2.5,1.6,-6,-5,4,1.6
Cc1cccc(N=C2NC(=O)/C(=C/c3cn(C)c4ccccc34)S2)c1,6,-0.6,1.3,-1.5,3,20,15,?
CSc1nc(N2CCN(c3ccccc3)CC2)cc(N2CCN(c3ccccc3)CC2)n1,3,-0.7,4.1,1.8,7,6,19,0.5
COc1ccc(-c2nc3ccccn3c2Cl)cc1,-9,-11,-35,0.6,17,0,-4,?
O=C(c1ccc(CS(=O)c2ccccc2Cl)o1)N1CCCCCC1 (stereo not given),-5,-0.1,4.3,-4.2,-2,26,-3,1.6
COc1ccc(-c2cc3ccccc3nc2N)cc1OC,11,-0.7,-28,1.0,5,-8,28,-0.9
O=C(c1ccccc1)C(Sc1ncn[nH]1)c1ccccc1 (stereo not given),-1,-2.1,4.2,1.6,-12,3,-34,5.5
CC1C(=O)OC2C1CCC1(C)CCC(=O)C(C)C21 (stereo not given),-4,-0.2,2.5,-1.1,-2,3,55*,0.4
O=C1OC(/C=C/c2ccccc2)=NC/1=C/C=C/c1ccccc1,8,0.0,2.2,-1.2,.,30,-12,-2.6
CC1CCCN(Cc2cnc(Cl)s2)C1 (stereo not given),-6,1.0,3.2,0.6,-8,-13,-17,-4.7
CCOc1ccc(C(=O)CCC(=O)Nc2cc(C)ccn2)cc1,1,0.8,-0.2,-1.2,.,7,-6,-4.3
COc1ccccc1C(=O)NC1CC2CCC(C1)N2Cc1ccccc1 (stereo not given),-2,1.2,6.2,3.2,-3,-12,6,-0.4
C=CCN1C(=O)/C(=C/C(=O)OC)S/C1=N\NC(=O)c1ccccc1,3,0.1,.,-2.6,-9,-13,5,5.1
CCOCCCn1c(SCC(=O)/C(C#N)=C(\C)N)nc2ccccc2c1=O,-5,-0.5,-1.0,3.1,-5,-5,-4,-0.9
CCOc1ccc(-c2nc(S(=O)(=O)c3ccccc3)c(N3CCOCC3)o2)cc1,3,0.4,4.8,-2.7,-2,6,3,-3.0
O=C(COC(=O)c1cc(S(=O)(=O)NCc2ccccc2)ccc1O)NCc1ccccc1,4,-0.9,-6.5,1.9,0,-8,18,-0.7
CCn1c(=O)n(CC)c2cc(S(=O)(=O)N3CCC(c4ccccc4)CC3)ccc21,-12,0.4,3.5,2.3,7,35,22,0.4
CCOC(=O)N1CCN(Cc2cn3ccccc3n2)CC1,-1,0.1,1.9,-1.9,-6,13,-2,3.5
Cc1cc(O)cc(=O)n1CCc1ccccc1,5,0.8,3.2,8.7,1,-2,?,-0.7
CC(c1nc2ccccc2c(=O)[nH]1)N1CCCN(S(=O)(=O)c2ccc(F)cc2)CC1 (stereo not given),-3,-2.2,-0.2,0.2,4,.,.,.
O=C1C=CC(=O)N1c1ccc(I)cc1Cl,.,0.7,.,1.1,-1,1,-5,-0.8
Fc1ccc(OCc2nc(-c3cccs3)no2)cc1,5,-2.8,0.6,-0.3,-6,-27,-13,-0.3
Cn1c(=NC(=O)CS(=O)(=O)c2ccccc2)sc2cc([N+](=O)[O-])ccc21,-3,0.2,0.3,-10,.,8,5,1.9
CCN(CC)CCNC(=O)C(C)c1nn(C)c(=O)c2ccccc12 (stereo not given),-9,0.3,4.1,1.5,-2,-4,.,.
CN(C)/N=C/c1ccc([N+](=O)[O-])cc1[N+](=O)[O-],12,1.0,.,-2.6,0,-3,-6,3.0
COc1cccc(CN2CCCC(N3CCc4ccccc4C3)C2)c1O (stereo not given),-2,0.7,1.7,1.3,-1,1,27,-2.6
COc1ccccc1N(C)C(=O)c1cc(S(=O)(=O)N2CCCC2)cn1C,-1,0.7,3.5,-0.1,-5,-3,-4,2.7
O=C(CC1S/C(=N/N=C/c2c[nH]c3ccccc23)NC1=O)Nc1ccccc1 (stereo not given),9,-0.2,.,3.1,-1,17,3,-1.9
Cc1ccc(S(=O)(=O)N(C)C)cc1NC(=O)[C@H](Cc1ccccc1)N1C(=O)c2ccccc2C1=O,-7,0.6,-2.5,.,-1,-11,-5,3.7
CC(C)c1ccc(NC(=O)COc2nncc3ccccc23)cc1,2,0.5,3.7,2.2,-7,-26,-1,7.6
CN(c1ccccc1C(=O)Nc1ccc(S(=O)(=O)N2CCOCC2)cc1)S(C)(=O)=O,11,0.3,1.2,3.5,-6,-2,-3,8.5
CN(c1ccccn1)c1ncnc2[nH]ncc12,5,0.5,-0.8,-0.1,-5,-5,-3,-0.1

# Other compounds
SMILES,B2AR ag,Bfl-1 A1 inh,UCH37 inh,LANA-H2B inh,Beta cell apopt,Calb FLC,T cruzi inh,RanGTP-Imp inh
COc1ccc(C(C)(C)C)cc1NC(=O)COC(=O)c1cnc(C)cn1,10,0.2,4.8,-2.0,5,-3,18,-4.0
CC1(C)OC(=O)C(=Cc2ccc(-c3ccc(S(N)(=O)=O)cc3)o2)C(=O)O1,2,6.1*,4.8,-5.1,.,0,-10,-2.2
COc1ccc(/C=C2\SC(=S)N(NS(=O)(=O)c3ccccc3)C2=O)c(OC)c1,13,-0.9,6.6,-5.7,-10,59,1,-3.7
COCCNC(=O)/C(C#N)=C\c1ccc(CNC(=O)C(=O)Nc2ccc(C)c(C)c2)o1,-2,0.8,6.3,4.5,0,-17,-7,3.9
O=c1c2ccccc2[nH]c(=S)n1CCCN1CCN(C2CCCCC2)CC1,-5,1.1,1.2,-0.9,1,.,.,.
CCCc1cc(=O)[nH]c(SCC(=O)Nc2cccc3ccccc23)n1,5,0.2,1.9,3.1,0,26,-4,1.4

# Random excerpt: 3 records from the list, in no set order.
SMILES,B2AR ag,Bfl-1 A1 inh,UCH37 inh,LANA-H2B inh,Beta cell apopt,Calb FLC,T cruzi inh,RanGTP-Imp inh
CCOc1ccc(NC(=S)NC(=O)c2c(Br)cnn2C)c([N+](=O)[O-])c1,-9,0.5,-13,-3.4,15,-4,9,3.4
CCOCCCn1c(SCC(=O)/C(C#N)=C(\C)N)nc2ccccc2c1=O,-5,-0.5,-1.0,3.1,-5,-5,-4,-0.9
CCCc1cc(=O)[nH]c(SCC(=O)Nc2cccc3ccccc23)n1,5,0.2,1.9,3.1,0,26,-4,1.4
